MARV entry inh: Marburg virus entry inhibition. Marburg virus pseudotyped entry inhibition, cell reporter; control for the full effect not named in the record; about a third of the inactives were read at about 46 µM. Potency, µM (top dose mostly 37.8 µM), for inactives: at the top dose activity change, negative = inhibition, hits mostly inhibitors. 300,000 compounds, 1.8% hits; active = well fitted inhibition curve with a large enough effect; inconclusive = small, poorly fitted or top-dose-only effect, or effect the other way; inactive = flat fitted curve, though single readings scatter; tested in HEK293 cells; about a fifth of its hits are not listed in these tables; further: on the % scale 0 is the no-effect control and ±100 the full control effect; luciferase read-out
Lassa entry inh: Lassa virus entry inhibition; AID 540256; Potency, µM (doses to about 37.9 µM), for the others: top-dose activity change, negative = inhibition, usual class: inhibitors; 300,000 compounds, 1.2% hits; Lassa virus pseudotype entry inhibition, cell reporter; control for the full effect not named in the record; active means well fitted inhibition curve with a large enough effect; inconclusive means small, poorly fitted or top-dose-only effect, or effect the other way; inactive means flat fitted curve, though single readings scatter; tested in HEK293 cells; further: on the % scale 0 is the no-effect control and ±100 the full control effect; nearly all actives have a fitted effect of over 50% in size; luciferase read-out
NS1 function inh: blocks influenza NS1 protein function. S. cerevisiae slowed by influenza A NS1, growth recovery by OD600. Potency, µM (highest dose often 46.1 µM), for the others: at the top dose activity, positive = more growth. 270,000 compounds, 0.4% hits; active means well fitted rising curve with a large enough effect; inconclusive means small, poorly fitted or top-dose-only effect; inactive means no such curve, though single readings can be large or run the other way; further: nearly all actives have a fitted effect of over 50% in size
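A cell-based growth assay was used: compounds that relieve NS1-induced slow growth of budding yeast raise OD600. Assay medium was yeast nitrogen base with ammonium sulphate and -URA supplement, pH 6.0, with 2% galactose.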
StopGo reporter: lowers the luciferase signal of an FMDV 2A StopGo reporter; 410,000 compounds, 1.2% hits; human cells with a luciferase reporter of 2A StopGo recoding; control for the full effect not named in the record; Potency, µM (series often up to 57.9 µM), inactives show at the top dose signal change, negative = less light; active = well fitted falling curve with a large enough effect; inconclusive = small, poorly fitted or top-dose-only effect; inactive = no such curve, though single readings can be large or run the other way; tested in HEK293T cells; further: on the % scale 0 is the no-effect control and ±100 the full control effect; nearly all actives have a fitted effect of over 45% in size; luciferase light after 4 h
SARS PLP yeast: inhibitors of SARS-CoV papain-like protease in yeast. S. cerevisiae expressing SARS-CoV PLpro, growth rescue; control for the full effect not named in the record. Potency, µM (series often up to 32.9 µM), inactives show at the top dose activity, positive = growth rescue. 330,000 compounds, 0.19% hits. AID 485353; active means well fitted rising curve with a large enough effect; inconclusive means small, poorly fitted or top-dose-only effect; inactive means no such curve, though single readings can be large or run the other way; further: 0% is about no effect; nearly all actives have a fitted effect of over 55% in size; growth read by luminescence after 48 h
Cruzain noTriton: cruzain (T. cruzi) inhibition without detergent. P25779. purified cruzain, Z-FR-AMC fluorescence, no detergent. Potency, µM, for inactives: max response, negative = inhibition, hits mostly inhibitors. 200,000 compounds, 2.3% hits. AID 1476;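 further: plate controls were enzyme without inhibitor for no effect and buffer without enzyme for full effect; nearly all actives have a fitted effect of over 40% in size; top concentration of the series not given in the record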
Target sequence (P25779 123-467 limits assumed): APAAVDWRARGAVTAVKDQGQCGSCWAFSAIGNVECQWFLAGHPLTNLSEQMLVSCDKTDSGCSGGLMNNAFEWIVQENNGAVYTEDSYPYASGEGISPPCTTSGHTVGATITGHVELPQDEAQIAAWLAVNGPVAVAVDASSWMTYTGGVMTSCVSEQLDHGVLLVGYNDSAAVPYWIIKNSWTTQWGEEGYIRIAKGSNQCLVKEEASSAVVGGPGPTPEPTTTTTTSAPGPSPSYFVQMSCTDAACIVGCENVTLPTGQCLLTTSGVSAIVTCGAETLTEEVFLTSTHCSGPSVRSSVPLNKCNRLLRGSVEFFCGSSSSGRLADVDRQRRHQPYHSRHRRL
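Detergent-free condition (0.00005% Triton X-100) in acetate buffer pH 5.5 with DTT. 1.5 nM enzyme and compound were pre-mixed 15 min, then 2 uM Z-FR-AMC substrate added; reaction progress from fluorescence change between first and third reads (60 s).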
RE007 growth inh: less growth of the S. pombe RE007 Vpr strain. 360,000 compounds, 0.21% hits. S. pombe RE007 Vpr strain, BacTiter-Glo ATP luminescence, 24 h; control for the full effect not named in the record. Potency, µM (highest dose often 92.2 µM), without a hit: at the highest dose activity change, negative = less growth; active = well fitted falling curve with a large enough effect; inconclusive = small, poorly fitted or top-dose-only effect; inactive = no such curve, though single readings can be large or run the other way;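 further: on the % scale 0 is the no-effect control and ±100 the full control effect; nearly all actives have a fitted effect of over 50% in size; the assay follows cell death caused by Vpr and the record does not say whether a fall means rescue or toxicity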
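Fission yeast RE007 carrying one integrated HIV-1 vpr copy, seeded at OD 0.01 in PMG+AL medium with 23 nL pinned compound. Grown 24 h at 30 degrees; viability read by BacTiter-Glo luminescence after 5 min.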
Cruzain Triton: blocks cruzain activity in presence of Triton detergent; P25779; purified cruzain, Z-FR-AMC fluorescence, 0.01% Triton; Potency, µM, for the others: max response, negative = inhibition, usual class: inhibitors; 200,000 compounds, 0.43% hits; AID 1478;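 further: plate controls were neutral wells for no effect and buffer without enzyme for full effect; nearly all actives have a fitted effect of over 40% in size; top concentration of the series not given in the record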
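Detergent-containing run (0.01% Triton X-100) in acetate buffer pH 5.5 with 5 mM DTT: enzyme at 1.5 nM final, 15 min compound preincubation at room temperature, then 2 uM Z-FR-AMC substrate. Activity taken as 60 s fluorescence increase at 360/450 nm.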
* marks the source's active call; other numbers are inactive results; ? = inconclusive; nt = no result given; & = joins results of further samples; [ ] = dose if it differs, or a comment. Unless noted, the call rests on the fitted dose curve; in most records, active means well fitted curve in the direction sought with a large enough effect; inconclusive means small, poorly fitted or top-dose-only effect, or another doubt; inactive means no such curve, though single readings can be large; an effect the other way counts as inactive or inconclusive. Potency means the concentration at half of the fitted maximal effect.

SMILES	MARV entry inh	Lassa entry inh	NS1 function inh	StopGo reporter	SARS PLP yeast	Cruzain noTriton	RE007 growth inh	Cruzain Triton
Cc1cc(NC(=O)c2cc([N+](=O)[O-])cc([N+](=O)[O-])c2)n(-c2ccccc2)n1	?	1%	-4%	-15%	-23%	6%	0%	-4.0%
COc1ccc(C(=O)NCC(c2cccnc2)N2CCN(c3ccccc3)CC2)cc1OC (stereo unspecified)	nt	nt	-26%	-28%	-6%	0%	-3%	-2.5%
CCCC1Cc2[nH]c(=O)c(C#N)cc2CO1 (stereo unspecified)	17%	1%	-2%	-16%	-3%	nt	8%	nt
CCN(CC)c1ccc(NC(=O)c2cc3c(=O)n4cccc(C)c4nc3n2C)c(C)c1	nt	-3%[46.1 µM]	nt	-5%	nt	6%	nt	-2.5%
CC(C)N1CCC(N2CCN(C/C=C/c3ccccc3)CC2CCO)CC1 (stereo unspecified)	?	-3%	0%	-11%	1%	nt	-16%	nt
CCOC(=O)N1CCN(C(=O)c2ccccc2N(Cc2ccccc2)S(=O)(=O)c2ccc(OC)cc2)CC1	?	7.1µM*	1%	-18%	1%	nt	4%	nt
C=CCn1c(COc2ccccc2)nnc1SCC(=O)O	-8%	16%	1%	2%	-6%	-8%	5%	-1.6%
CCOc1ccc(CNS(=O)(=O)c2ccc3c(c2)CCCN3C(C)=O)cc1OC	nt	15%[46.1 µM]	nt	-16%	nt	-10%	nt	-0.6%
C/C(=N\NC(=O)CSCc1ccc(Cl)cc1)c1ccc2c(c1)OCCO2	?	?	-12%	?	1%	-6%	-7%	-3.6%
O=C(NNC(=O)c1ccc(Cl)cc1Cl)c1cnccn1	nt	nt	4%	29%	2%	nt	-6%	nt
Cn1ccnc1C(O)c1cc(C(C)(C)C)c(O)c(C(C)(C)C)c1 (stereo unspecified)	-25%	12%	-39%	nt	-55%	3%	-15%	3.3%
O=C(COC(=O)C1CCN(c2ccc(C(F)(F)F)cn2)CC1)c1ccc(Cl)cc1	6%	2%[46.1 µM]	nt	-20%	-3%	nt	-9%	nt
CCn1c(CSc2nnc(-c3ccncc3)n2CCOC)nc2cc(C(=O)O)ccc21	22%[46.1 µM]	-9%	nt	8%	0%	nt	-14%	nt
O=C(CCNS(=O)(=O)c1ccccc1Cl)N1CCN(c2ccccn2)CC1	?	13%	nt	2%	5%	nt	-6%	nt
Cc1nnc(-c2ccccc2)c(=O)n1/N=C/c1c(O)ccc2ccccc12	?	?	-48%	-5%	3.2µM*	-5%	1%	-12%
COc1ccc(-c2nc3c(s2)CN(S(C)(=O)=O)CC3)cc1OC	?	?	-3%	38%[activator]	7%	nt	-17%	nt
COc1ccc2oc(C(=O)OCC(=O)N3CCCC(C)C3)c(C)c2c1 (stereo unspecified)	4%	?	nt	-2%	1%	nt	-11%	nt
CC(=O)O/N=C(/c1nonc1N)N1CCN(c2ccc([N+](=O)[O-])cc2Cl)CC1	-2%	2%	-2%	-15%	-22%	0%	?	-9.1%
Cc1n[nH]c(=O)nc1N/N=C/c1ccco1	?	?	nt	9%	-9%	nt	-14%	nt
COc1ccc(/C=N/c2nc3ccccc3n2CCN2CCCCC2)cc1OC	-20%	?	17%	-16%	11%	-13%	-10%	-11%
Cc1cc(OCC(=O)NCC(O)c2ccccc2)c2c(C)cc(=O)oc2c1 (stereo unspecified)	-1%[46.1 µM]	-8%[46.1 µM]	-8%	-4%	4%	nt	-10%	nt
COc1nc(-c2ccccc2)ccc1-c1noc(-c2ccccc2Br)n1	13%[46.1 µM]	21%[46.1 µM]	nt	-11%	nt	0%	nt	0.1%
C(=N\Nc1ncnc2ccccc12)/c1ccccc1	?	?	nt	-29%	2%	nt	-13%	nt
O=C(OCc1c(Cl)cccc1Cl)c1cccnc1Cl	-2%	-6%	-8%	-23%	-2%	0%	0%	-5.2%
CCOc1ccc(CCNC(=O)c2sc3ncccc3c2-n2c(C)ccc2C)cc1	nt	?	nt	?	nt	-9%	nt	4.2%
CC(O)C(NS(=O)(=O)c1ccc(Cl)cc1)C(=O)OCC(=O)Nc1cccnc1Cl (stereo unspecified)	-1%	?	-4%	-21%	11%	-4%	21%	-12%
Cc1cc(C)c2c(=O)cc(C(=O)NCc3ccccc3)oc2c1	?	-11%	-1%	8%	4%	nt	-18%	nt
O=C(COc1ccc(Cl)cc1)NC(=S)Nc1ccccc1N1CCOCC1	-18%	11%	5%	-25%	42%	nt	-3%	nt
C=CCNC(=S)NNC(=O)COc1ccc(Br)cc1	0%	7%	-13%	-15%	?	-14%	3%	-1.4%
Cn1c(=O)oc2cc(S(=O)(=O)N3CCC(C(=O)NCc4ccc(F)cc4)CC3)ccc21	-2%[46.1 µM]	4%[46.1 µM]	-5%	-25%&-20%	1%	1%&-13%	-3%	1.2%&1.9%
CC(CCc1ccccc1)NC(=O)CNC(=S)N(Cc1cccs1)C1CCCC1 (stereo unspecified)	?	?	nt	44%[activator]	-5%	nt	31%	nt
Cc1nnc(SCC(=O)NCc2ccco2)n1-c1ccc(F)cc1	4%	5%	2%	-19%	10%	7%	-9%	4.9%
CN1/C(=C/C=C(C#N)C#N)C=Cc2ccccc21	nt	nt	0%	8%	1%	nt	2%	nt
CCN1/C(=N\N)c2cccc3cccc1c23	nt	nt	6%	32%[activator]	-2%	nt	-22%	nt
O=C1NCC(NC(=O)C(F)(F)F)c2cc3c(cc21)OCO3 (stereo unspecified)	-12%[46.1 µM]	0%	nt	-1%	12%	nt	-8%	nt
CCCc1[nH]nc2c1C(c1c(C)nn(-c3ccccc3)c1Cl)C(C#N)=C(N)O2 (stereo unspecified)	?	?	6%	?	3%	-2%	1%	-9.7%
Cc1cccc2c1-c1sc(C(=O)NCCCN3CCN(c4ccccc4F)CC3)cc1CO2	11µM*	nt	nt	?	nt	?	nt	-5.4%
CCc1ccc2ncc3c(-c4ccccc4)nn(-c4ccccc4)c3c2c1	-9%[46.1 µM]	-3%[46.1 µM]	nt	-29%	nt	-1%	nt	-1.6%
CC1Cc2ccccc2N1c1ncnc2c1nnn2Cc1ccccc1Cl (stereo unspecified)	0%	-10%	2%	?	28%	25µM*	-6%	-21%
Cc1ccc(C2=NNC(C(O)C(O)C(O)C(C)O)S2)cc1 (stereo unspecified)	?	14%	5%	66%[activator]	4%	-8%	12%	0.8%
Cc1cc(=O)oc2cc(OCC(=O)N3CCN(c4ccccc4)CC3)c(Cl)cc12	3%[46.1 µM]	1%[46.1 µM]	?	-1%	3%	nt	-10%	nt
Cc1ccc(-c2[nH]c3ccccc3c2SCCNC(=O)c2cc3ccccc3oc2=O)cc1	-3%	-7%	?	-11%	2%	?	11%	-1.5%
C=CCNc1nc2c(c(=O)[nH]c(=O)n2C)n1CC(O)COc1ccc2ccccc2c1 (stereo unspecified)	?	-8%	6%	-6%	1%	nt	-1%	nt
O=C(CSC(=S)N1CCCCC1)c1c(F)cccc1F	nt	nt	1%	31%[activator]	1%	nt	-10%	nt
CCOCCCNC(=O)c1ccc(N(C)S(=O)(=O)c2ccc(OC)cc2)cc1	14%	-4%	-8%	1%	1%	6%	11%	1.9%
CSc1ccc(-c2nc3ccc(C)cn3c2Nc2ccccc2C)cc1	1%[46.1 µM]	-6%[46.1 µM]	nt	0%	nt	11%	nt	-2.1%
Cc1cc2ccccc2cc(C)c1=O	-1%[46.1 µM]	5%	2%	3%	6%	6%	-19%	-2.6%
COc1ccc(C(=O)NCC2CCCO2)cc1 (stereo unspecified)	12%	?	5%	45%[activator]	13%	3%	1%	3.4%
O=C(CSc1nc2ccccc2c(=O)n1Cc1ccccc1)Nc1ccc(Br)cc1C(=O)O	?	?	1%	-2%	-6%	nt	14%	nt

By substructure: those above containing an aryl methoxy group.
SMILES	MARV entry inh	Lassa entry inh	NS1 function inh	StopGo reporter	SARS PLP yeast	Cruzain noTriton	RE007 growth inh	Cruzain Triton
COc1ccc(C(=O)NCC(c2cccnc2)N2CCN(c3ccccc3)CC2)cc1OC (stereo unspecified)	nt	nt	-26%	-28%	-6%	0%	-3%	-2.5%
CCOC(=O)N1CCN(C(=O)c2ccccc2N(Cc2ccccc2)S(=O)(=O)c2ccc(OC)cc2)CC1	?	7.1µM*	1%	-18%	1%	nt	4%	nt
CCOc1ccc(CNS(=O)(=O)c2ccc3c(c2)CCCN3C(C)=O)cc1OC	nt	15%[46.1 µM]	nt	-16%	nt	-10%	nt	-0.6%
COc1ccc(-c2nc3c(s2)CN(S(C)(=O)=O)CC3)cc1OC	?	?	-3%	38%[activator]	7%	nt	-17%	nt
COc1ccc2oc(C(=O)OCC(=O)N3CCCC(C)C3)c(C)c2c1 (stereo unspecified)	4%	?	nt	-2%	1%	nt	-11%	nt
COc1ccc(/C=N/c2nc3ccccc3n2CCN2CCCCC2)cc1OC	-20%	?	17%	-16%	11%	-13%	-10%	-11%
COc1nc(-c2ccccc2)ccc1-c1noc(-c2ccccc2Br)n1	13%[46.1 µM]	21%[46.1 µM]	nt	-11%	nt	0%	nt	0.1%
CCOCCCNC(=O)c1ccc(N(C)S(=O)(=O)c2ccc(OC)cc2)cc1	14%	-4%	-8%	1%	1%	6%	11%	1.9%
COc1ccc(C(=O)NCC2CCCO2)cc1 (stereo unspecified)	12%	?	5%	45%[activator]	13%	3%	1%	3.4%

Screens (PubChem)
